# High-throughput results as filed in PubChem BioAssay.
# KCNQ2 enhance: KCNQ2 (rat) channel potentiation | CHO-K1 KCNQ2, FluxOR thallium flux fluorescence; stronger effect = higher value | O88943 | B-score at 10 µM | AID 2239 | actives 0.54% (n = 310,000);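 active means fluorescence ratio B-score at least 3 SD of library B-scores, with initial fluorescence B-score within 3 SD, cut at about 5.3 in these data; same plate scores as AID 2156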;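 further: B-score of peak minus minimum over baseline fluorescence ratio after K+ and Tl+ stimulus; positive B-score means potentiation of KCNQ2 with more thallium influx and brighter signal; only the inactives scoring about 0 or higher are listed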
# Target sequence (O88943 whole entry, looked up): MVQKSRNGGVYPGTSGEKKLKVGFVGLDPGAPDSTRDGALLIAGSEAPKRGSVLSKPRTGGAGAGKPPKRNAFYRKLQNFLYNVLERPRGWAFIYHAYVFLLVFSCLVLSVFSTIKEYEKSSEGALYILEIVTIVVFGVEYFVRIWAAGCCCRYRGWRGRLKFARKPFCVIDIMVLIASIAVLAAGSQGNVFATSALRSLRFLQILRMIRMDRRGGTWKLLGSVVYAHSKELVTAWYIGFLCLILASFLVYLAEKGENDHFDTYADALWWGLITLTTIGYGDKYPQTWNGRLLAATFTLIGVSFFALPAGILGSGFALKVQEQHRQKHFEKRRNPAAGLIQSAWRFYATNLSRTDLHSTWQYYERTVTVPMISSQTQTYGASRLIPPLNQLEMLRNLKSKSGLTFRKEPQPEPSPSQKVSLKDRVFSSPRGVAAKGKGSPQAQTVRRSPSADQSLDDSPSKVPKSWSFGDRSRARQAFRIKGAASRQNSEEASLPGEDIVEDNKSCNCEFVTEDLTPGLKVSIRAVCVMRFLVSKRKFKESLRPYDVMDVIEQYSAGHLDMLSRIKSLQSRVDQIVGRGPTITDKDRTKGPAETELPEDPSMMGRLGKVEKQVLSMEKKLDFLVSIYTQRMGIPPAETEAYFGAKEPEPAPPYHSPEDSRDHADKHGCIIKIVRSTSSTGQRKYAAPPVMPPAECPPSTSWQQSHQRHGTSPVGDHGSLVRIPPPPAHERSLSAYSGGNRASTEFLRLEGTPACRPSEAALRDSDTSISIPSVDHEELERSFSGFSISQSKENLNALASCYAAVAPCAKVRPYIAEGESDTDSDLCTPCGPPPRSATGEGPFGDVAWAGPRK
# KCNQ2 enhance baseline: also measured in KCNQ2 enhance; calls as there; B-score; compound at 10 µM; measured here: initial fluorescence intensity artifact check;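 brightness before thallium and not channel activity; 0 = typical well and far values either way flag optical interference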
# The depositor's hits bear a star.
KCNQ2 enhance,KCNQ2 enhance baseline,SMILES
1.8,-2.4,CCN1CCN(CC(=O)Nc2nc3ccc(OC)cc3s2)CC1
1.2,-1.4,Cc1ccc2cc(CN(Cc3cccs3)Cc3nnnn3CC3CCCO3)c(=O)[nH]c2c1C (stereo unspecified)
0.72,0.06,CCOC(=O)c1[nH]c2ccc(OC)cc2c1N=CN(C)C
0.41,-0.04,CN(C)S(=O)(=O)c1cccc(NC(=S)N/N=C/c2cccc(O)c2)c1
0.09,-1.4,COCCn1c(SCC(=O)Nc2cc(C)nn2-c2ccccc2)nnc1-c1ccncc1
1.4,0.83,Cc1ccc(-c2csc3nc(SCC(=O)Nc4ccc(Cl)c(C(=O)O)c4)[nH]c(=O)c23)cc1
1.1,0,COC(=O)CC1C(C(=O)OC)ON2OC(C(=O)OC)C(C(=O)OC)C12 (stereo unspecified)
0.63,-0.11,O=C(Cn1ccc(C(F)(F)F)n1)N/N=C/c1ccc(N2CCOCC2)cc1
1.6,0.97,CC(C(=O)NC1CCCC1)N(C(=O)c1snc(C(N)=O)c1N)c1ccc2c(c1)OCCO2 (stereo unspecified)
0.43,-0.76,CN(C)c1ccnc2sc(C(=O)c3ccc(Br)cc3)c(N)c12
1.6,-0.7,O=C(NCc1ccccn1)c1ccc(Cl)c(S(=O)(=O)N2CCOCC2)c1
0.32,-0.99,COc1ccc(C(=O)NNC(=O)c2cc3ccccc3cc2O)cc1
4.2,1.3,Cc1c(Cl)cccc1NC(=S)NCCC(C)C
1,0.57,Cc1ccc(C(=O)Nc2ccc(N3CCN(S(C)(=O)=O)CC3)cc2)cc1
2,1.1,O=C(NCCc1ccccc1)C1CCCN1S(=O)(=O)c1ccc(Cl)cc1 (stereo unspecified)
0.88,1.4,COc1ccc(CN2CCC(C)CC2)cc1OCc1ccccc1
1.1,0.48,COc1ccc(/C=N\NS(=O)(=O)c2ccc(Br)cc2)cc1COc1ccccc1[N+](=O)[O-]
0.01,1.3,CCS(=O)(=O)Nc1cccc(-c2ccc3nnc(-c4cccnc4)n3n2)c1
0.04,-1.9,O=C(CCCOc1ccccc1)NCCc1nc2ccccc2[nH]1
0.5,-0.04,O=C(CN1C(=O)c2ccc(Br)cc2C1=O)NCC1CCCO1 (stereo unspecified)
0.13,-0.42,CC1(C)Cc2ccccc2-c2nnc(-c3ccco3)n21
0.44,1.7,CCO[C@@H]1OC(C(=O)NC2CC2)=C[C@H](c2csc3ccccc23)[C@H]1CCCO
0.42,0.54,O=C(N/N=C/c1ccccc1[N+](=O)[O-])c1ccc2nc[nH]c2c1
0.46,0.12,CCOc1ccc(OCCC(=O)OCC(=O)NC(C)c2ccccc2)cc1 (stereo unspecified)
0.06,0.07,COc1ccc(NC(=O)c2cc(=O)[nH]c(=O)[nH]2)cc1S(=O)(=O)Nc1ccccc1Cl
0.14,-0.04,O=C(CN1C(=O)CSc2ccccc21)N1CCc2ccccc21
0.71,0.5,Cc1cc(NC(=O)CCCSc2nc(-c3ccco3)cc(C(F)(F)F)n2)no1
1.5,0.72,COc1ccc(C(O)(CCN2CCOCC2)c2ccccc2)cc1 (stereo unspecified)
1.1,-0.22,O=C(CN1C2=NCCN2c2ccccc21)c1ccc(Br)cc1
0.68,-1.8,COC(=O)C1(S(=O)(=O)c2ccc(C)cc2)CCOCC1

# As entered above:
# Under KCNQ2 enhance baseline, `Cc1ccc(C(=O)Nc2ccc(N3CCN(S(C)(=O)=O)CC3)cc2)cc1` is entered as 0.57
# Under KCNQ2 enhance baseline, `CC(C(=O)NC1CCCC1)N(C(=O)c1snc(C(N)=O)c1N)c1ccc2c(c1)OCCO2` (stereo unspecified) is entered as 0.97
# Under KCNQ2 enhance baseline, `Cc1cc(NC(=O)CCCSc2nc(-c3ccco3)cc(C(F)(F)F)n2)no1` is entered as 0.5
# Under KCNQ2 enhance baseline, `CN(C)c1ccnc2sc(C(=O)c3ccc(Br)cc3)c(N)c12` is entered as -0.76
# Under KCNQ2 enhance baseline, `Cc1c(Cl)cccc1NC(=S)NCCC(C)C` is entered as 1.3

# (more compounds)
KCNQ2 enhance,KCNQ2 enhance baseline,SMILES
1.6,0.99,O=C(COc1ccc(Cl)cc1)c1ccc(O)cc1O
1.1,0.24,CCN1CCN(CC(=O)Nc2ccc(C(C)=O)cc2)CC1
0.98,0.59,O=[N+]([O-])c1ccc(Sc2n[nH]c(-c3ccc(Cl)cc3Cl)n2)nc1
2.2,-0.5,Nc1nc(SCc2nc3scc(-c4ccccc4)c3c(=O)[nH]2)n[nH]1
1.4,-0.02,COc1cc(NC(=O)COc2cc(C)cc3oc(=O)c(C)c(C)c23)cc(OC)c1OC
0.41,0.27,Cc1ccc(NC(=O)c2ccc(NCCCN3CCC(C)CC3)c([N+](=O)[O-])c2)c(C)c1
0.27,-0.05,O=C(CSc1nnc(CNc2ccc(F)cc2)o1)N1CCCc2ccccc21
0.08,0.1,O=[n+]1c2c(n([O-])c3c1CCC3)CCCC2
0.52,-1.9,O=C(/C=C/c1ccco1)N(Cc1ccccc1)C1CCS(=O)(=O)C1 (stereo unspecified)
0.28,-0.64,CCc1nnc(NC(=O)CC(=O)Nc2ccccc2C(=O)O)s1
0.34,-0.11,CSCCC(NC(=O)c1ccccc1)C(=O)OCC(=O)N(C)CCC#N (stereo unspecified)
0.53,0.46,C=C(C)c1cccc(C(C)(C)NC(=O)N2CCC(C(N)=O)CC2)c1
0.04,-1.6,CN(Cc1nccn1C)C(=O)c1cc(COc2cccc(C(F)(F)F)c2)on1
0.39,0.01,COC(=O)CCCC(=O)N1CCC(n2nccc2NC(=O)CCOc2ccccc2)CC1
0.03,-1.7,Cc1cc(C(=O)NNC(=S)NCc2ccco2)nn1C
0.77,-0.98,Cc1cc(C)c(S(=O)(=O)Nc2ccnc(-c3cccnc3)n2)c(C)c1
0.15,-0.74,O=C(Nc1ccccc1)c1cc([N+](=O)[O-])ccc1NCc1cccnc1
1.1,0.26,COc1ccc(N(C)S(=O)(=O)c2cccc(C(=O)NC3=NCCS3)c2)cc1
1.1,0.12,Cc1nn(-c2ccc(F)cc2)c2nc(N)c(C#N)c(-c3ccc(O)c(O)c3)c12
1.8,-0.2,CC(=O)Nc1sc(N/N=C\c2ccccc2Cl)nc1-c1cccs1
1.8,-1.3,C=CCN1CCN(c2ccncc2S(=O)(=O)N2CCOCC2)CC1
0.13,1.1,CCOC(=O)C1=NN(C(=O)c2ccco2)C2(CC2)C1
0.06,2,O=C(OC1Cn2c(=O)ccc(=O)n2C1)c1ccccc1
0.4,-3.6,Cc1c(C(=O)Nc2ccc(N3CCOCC3)cc2)oc2ccccc12
1.7,0.51,CCNC(=S)N/N=C1\C(=O)c2cccc3cccc1c23
0.48,0.58,CCOC(=O)c1oc2cc(O)cc(O)c2c(=O)c1OCc1ccccc1
0.77,1.5,COc1ccc(CCC(=O)Nc2ncc(C)s2)cc1OC
0.26,0.58,O=C(Nc1ccc(Cl)cc1)C1CCN(C(=O)c2cccs2)CC1
2,0.34,CCC(=O)N1CCc2cc(S(=O)(=O)NCCC(=O)N3CCc4ccccc4C3)ccc21
0.62,-0.4,CC(C)c1ccc(C2NC(=S)NC3=C2C(=O)CCC3)cc1 (stereo unspecified)

# Quoted at random: two compounds from above
KCNQ2 enhance,KCNQ2 enhance baseline,SMILES
0.77,-0.98,Cc1cc(C)c(S(=O)(=O)Nc2ccnc(-c3cccnc3)n2)c(C)c1
0.13,1.1,CCOC(=O)C1=NN(C(=O)c2ccco2)C2(CC2)C1

# Next entries follow.
KCNQ2 enhance,KCNQ2 enhance baseline,SMILES
1.2,-0.41,CC(=O)c1cccc(N(CC(=O)NC2CCCC2)C(=O)c2csnn2)c1
1.1,-0.34,CCOC(=O)/C(C#N)=N/Nc1c(S(=O)(=O)Cc2ccco2)csc1C(=O)OC
0.58,-0.19,COc1ccccc1/C=C/C(=O)Nc1cccnc1Cl
1.3,-0.11,COc1ccc(/C=N/NC(=O)C(O)(c2ccccc2)c2ccccc2)cc1OC
0.62,0.09,CCC1CCCCN1CCCNC(=O)CNC(=O)c1nn(-c2ccc(OC)cc2)c(=O)c2ccccc12 (stereo unspecified)
0.77,0.42,Cc1nc(SCC(=O)NCc2ccccc2)c2c(=O)n(C)c(=O)n(C)c2n1
0.49,2,C=CCc1c(C)nc(SCCC)[nH]c1=O
1.3,0.1,O=C(O)c1cc(-c2ccccc2)nn1CC1CC(c2cccnc2)=NO1 (stereo unspecified)
0.28,0.03,CC(=O)COc1ccc2c(C)c(-c3ccccc3)c(=O)oc2c1
1,0.11,Cc1ccc2[nH]c(SCC(=O)N3CCOCC3)nc2c1C
5.2,-2.2,C=CCc1cccc(/C=N/NC(=O)c2ccccc2OC)c1O
0.92,0.13,COc1cccc(NC(=O)NC2(C(=O)N3CCC(O)CC3)CCCCC2)c1
1.7,-0.57,NC(=O)CC12CC3CC(C1)CC(CC(N)=O)(C3)C2
0.41,-0.63,CC(C)CCNC(=O)NC(=O)CSc1nnc(-c2ccccc2F)n1N
0.48,-0.63,CCOC(=O)Cc1csc(NC(=O)CSc2nnc(-c3ccc(F)cc3)o2)n1
0.37,0.37,COc1ccc(CSc2nc3ccccc3c(=O)[nH]2)cc1F
0.05,-1.4,CCOC(=O)C1(CC2CCCCO2)CCN(Cc2nc(-c3cccs3)oc2C)CC1 (stereo unspecified)
0.39,-0.13,Cc1cccc(NS(=O)(=O)c2cc3c(cc2C)n(C)c(=O)c(=O)n3C)c1
4.1,-1.6,Cc1ccc(NC(=O)CCSc2ccccc2)c(C)c1
1.6,-1.8,FC(F)Oc1cccc2cccnc12
0.05,-0.94,O=C(O)C1CC=CCC1C(=O)c1ccccc1 (stereo unspecified)
0.66,-0.76,C=CCN1C(=O)C2C(C(=O)NC3CCCC3)C3C=CC2(O3)C1C(=O)NC1CCCC1 (stereo unspecified)
0.01,-0.03,CC(=O)Cc1nsc(NC(=O)c2ccc(-c3ccc(Cl)cc3Cl)o2)n1
1.7,0.08,O=C(CSc1nnc(CCc2nc3ccccc3[nH]2)n1-c1ccccc1)NCc1ccco1
0.45,-2.4,COc1ccc(C(C)NC(=O)c2ccccc2)cc1 (stereo unspecified)
0.21,0.08,CCOC(=O)Nc1c2ccccc2nc2ccccc12
0.95,-0.13,CC(C)CCNC(=O)c1ccc(-n2cnc3cccnc32)cc1
0.31,0,Cc1cc(OC(=O)c2cc(Cl)nc3ccccc23)ccc1Cl
7.5*,0.39*,C=CCN(c1cccc(C(F)(F)F)c1)S(=O)(=O)c1cccc(C(=O)OCC(=O)Nc2ccccc2)c1
0.51,0.92,CCCCC1CC1C(=O)Nc1ccc(OC)c(OC)c1 (stereo unspecified)

# A second format for 4 compounds above:
canonical_smiles	KCNQ2 enhance	KCNQ2 enhance baseline
CN(Cc1nccn1C)C(=O)c1cc(COc2cccc(C(F)(F)F)c2)on1	0.04	-1.6
COC(=O)CCCC(=O)N1CCC(n2nccc2NC(=O)CCOc2ccccc2)CC1	0.39	0.01
Cc1cc(C(=O)NNC(=S)NCc2ccco2)nn1C	0.03	-1.7
Cc1cc(C)c(S(=O)(=O)Nc2ccnc(-c3cccnc3)n2)c(C)c1	0.77	-0.98

# (further entries)
KCNQ2 enhance,KCNQ2 enhance baseline,SMILES
1.5,-0.69,CNC(=O)COC(=O)/C=C/c1ccc(F)cc1
0.01,-0.9,CC(C)C(=O)N(Cc1ccccc1)c1ccccn1
0.02,-1.4,Cc1c(N(C)S(=O)(=O)c2ccc(Cl)c(C(=O)N3CCC(C(N)=O)CC3)c2)c(=O)n(-c2ccccc2)n1C
1.2,1.6,O=[N+]([O-])c1cccc(CSc2nc3ccccc3[nH]2)c1
1.7,-1.1,Cc1ccc(NS(=O)(=O)c2ccc3c(c2)NC(=O)CO3)cc1C
0.05,0.11,S=c1[nH]nc(-c2cccs2)n1/N=C/c1cccs1
0.19,1.2,O=C(Nc1ccc(C(F)(F)F)cc1)c1ccc2ncsc2c1
1.6,-0.01,C=CCCN([C@@H](C)C(=O)OC)S(=O)(=O)c1ccccc1Br
0.01,-0.01,O=C(O)c1cn(-c2ccccc2)nc1-c1ccc(Cl)cc1
0.37,0.81,CCOC(=O)Cn1c(C)cc(=O)c2ccccc21
0.35,1.7,O=C(Cc1ccccc1)Nc1ccc(NC(=O)c2cccnc2)cc1
2.8,1,CC(CCc1ccc(O)cc1)NC1c2ccccc2-c2ccccc21 (stereo unspecified)
1.4,1.1,CSc1nc2oc3c(c2c2nncn12)CC(C)(C)SC3
1.8,0,CCSc1cc(N2CCOCC2)nc(-c2ccc(Cl)cc2)n1
0.02,0.19,COc1ccc(/C=N/N2CCN(c3ccc(Cl)cc3)CC2)cc1
0.87,0.35,c1ccc(OCCSc2nc3ccccc3o2)cc1
0.69,1.1,CCc1ccc(NC(=O)C2CCCN(S(=O)(=O)c3cccs3)C2)cc1 (stereo unspecified)
0.8,2.5,O=C(NCc1ccccc1)N1CCOCC1
2,0.13,COc1ccc(C(=O)Nc2ccc(S(=O)(=O)N3CCOCC3)cc2)cc1
1.6,0.15,CC(C)/C(=N\NS(=O)(=O)c1ccc(Br)cc1)c1cccs1
2.1,0.07,O=S(=O)(NCc1ccc2c(c1)OCO2)c1cnc[nH]1
1.1,-0.57,CCC(=O)NS(=O)(=O)c1cccnc1Nc1ccc(Cl)cc1
0.92,2.9,Cn1c(=O)c2c(ncn2CC(=O)OCC(=O)c2ccc(F)c(F)c2)n(C)c1=O
0.95,0.48,CCOC(=O)C1(Cc2cccc(F)c2)CCN(C(=O)c2cnccn2)CC1
1.2,-0.74,CCCn1cc(CN2CCC(Oc3ccc(C(=O)N4CCCC4)cc3)CC2)c(C)n1
0.42,-0.13,COc1ccc(-c2nc(Cn3c(SCc4ccc(F)cc4)nc4ccncc43)c(C)o2)cc1OC
0.4,-0.33,COc1cccc(OC)c1C(=O)N=c1sc2cc(S(C)(=O)=O)ccc2n1C
0.86,0.09,O=C1CC(C(=O)NC2CCCCC2)C(c2ccccc2)O1 (stereo unspecified)
0.11,0.15,O=C(NCCc1ccccc1Cl)C1CCC(=O)N(C2CCCCCC2)C1 (stereo unspecified)

# The list is partial; the hit share may differ from the screen's.
